Bioassay records as filed in PubChem BioAssay.
StopGo RLuc = FMDV 2A StopGo reporter, Renilla signal; HEK cells with a luciferase reporter of 2A StopGo recoding; Potency, µM (doses to about 57.5 µM), inactives show at the top dose signal change, negative = less light; hit rate 0.32% among 120,000; AID 1745857; active means well fitted falling curve with a large enough effect; inconclusive means small, poorly fitted or top-dose-only effect; inactive means no such curve, though single readings can be large or run the other way; also: nearly all actives have a fitted effect of over 55% in size; overnight with compound
StopGo FLuc = lowers the firefly signal of an FMDV 2A StopGo reporter; hit rate 0.23% among 120,000; AID 1745856; HEK cells with a luciferase reporter of 2A StopGo recoding; Potency, µM (doses to about 57.5 µM), for the others: at the highest dose signal change, negative = less light; active = well fitted falling curve with a large enough effect; inconclusive = small, poorly fitted or top-dose-only effect; inactive = no such curve, though single readings can be large or run the other way; also: nearly all actives have a fitted effect of over 60% in size; overnight with compound
An asterisk follows results filed as active; ? = inconclusive; & = joins results of further samples; [ ] = another dose, or the depositor's remark. % is scaled to controls: 0 for no effect and ±100 for the full control effect; potency is read from the fitted curve at half-maximal effect.

SMILES | StopGo RLuc | StopGo FLuc
CCc1nnc(NC(=O)CCc2ncc(-c3ccccc3Cl)o2)s1 | 2% | 11%
O=C(Nc1nccs1)C12CC3CC(CC(C3)C1)C2 | 1% | 0%
CCOc1ccc(-n2nc(C(=O)Nc3cccc(C(F)(F)F)c3)c3ccccc3c2=O)cc1 | 20% | 10%
Cc1ccc(C)c(C(=O)CSc2cccc3cccnc23)c1 | 41%[activator] | 43%[activator]
COc1cc(OC)c(NC(=O)CSCc2cc(=O)n3ccccc3n2)cc1Cl | -7% | -6%
COc1ccc(S(=O)(=O)n2nc(-c3ccco3)nc2NCc2ccc(OC)c(OC)c2)cc1 | 80%[activator] | -6%
Cc1cc(NC(=O)C(C)C)ccc1Br | -15% | 20%
Cc1cc(/C=C(/C#N)C(=O)OC(C)C)cc(C)c1OC(F)F | -14% | 4%
Cc1c(Cl)cccc1NC(=O)c1cc(-c2ccc3c(c2)OCO3)on1 | -9% | -7%
O=C(CCCCC(=O)Nc1c(I)cc(I)c(C(=O)O)c1I)Nc1c(I)cc(I)c(C(=O)O)c1I | 0% | 26%[11.5 µM]
COc1ccc(NC(=O)c2ncoc2-c2cccc(Cl)c2)c(OC)c1 | -4% | 1%
CCCCSc1nnc(NC(=O)c2cc(=O)c3ccccc3o2)s1 | -7% | 2%
COc1ccc(C)cc1NC(=O)/C=C/c1nc2ccccc2o1 | -20% | 14%
CC1(C)NN1CCCCN1NC1(C)C (stereo not given) | 4% | -6%
Cc1noc(C(C)C)c1C(=O)NCc1cccnc1OC1CCCC1 | -13% | -9%
O=C(C1COc2cc(S(=O)(=O)NCc3ccc4c(c3)OCO4)ccc2O1)N1CCCCC1 (stereo not given) | 80%[activator] | -5%
CC(N)c1ccncc1 (stereo not given) | 1% | 17%
CCOc1ccc(CCNC(=O)CN2C(=O)COc3ccc(S(=O)(=O)N4CCCC4)cc32)cc1 | 6% | -13%
Cc1ccc(CNC(=O)Cn2nc(N3CCN(c4ccccc4)CC3)ccc2=O)cc1 | -4% | -18%
CC(=O)c1cccc(NC(=O)CCc2c(C)c3ccc(O)cc3oc2=O)c1 | 13% | 11%
O=C(Cn1c(-c2ccccc2)cc2ccccc21)N1CCCC1 | 64%[activator] | 0%
Cc1cccc(Nc2ncnc3c2cnn3C)c1C | -8% | -7%
CCCCOc1ccc(NC(=O)COc2ccccc2C)c2cccnc12 | ? | ?
CC(=O)Nc1ccc(S(=O)(=O)N2CCC(Oc3ccc(-n4cnnn4)cc3)CC2)cc1 | 13% | -3%
CCN(CC)CC(C)(C)NS(=O)(=O)c1ccc(Cl)cc1 | 0% | -7%
COc1ccccc1C(=O)Nc1nc(-c2ccc(Br)cc2)ns1 | -4% | -3%
Cc1cccc(CN2C(=O)c3ccccc3S(=O)(=O)c3ccc(C(=O)N4CCCC4)cc32)c1 | 36%[activator] | -7%
CN(C)c1ccc(CN(CC2CCCO2)C(=O)COc2ccccc2Cl)cc1 (stereo not given) | 64%[activator] | -13%
Cc1ccc(C)c(-c2cc(C(=O)O)c3ccc(C)c(C)c3n2)c1 | 16% | -3%
Cc1ccc(CNC(=O)CSc2nc3c(sc4ccccc43)c(=O)n2CCCOC(C)C)cc1 | -13% | -15%
COc1ccc(CNC(=O)Cn2ccc3cc(S(=O)(=O)N4CCCCCC4)ccc32)c(OC)c1 | 100%[activator] | -16%
CCOC(=O)c1ccc(NC(=O)c2ncoc2-c2ccc(OC)c(OC)c2)cc1 | 11% | -2%
CCOC(=O)C1=C(CNCc2ccccc2Cl)NC(=O)NC1c1cc(C)ccc1C (stereo not given) | -24% | ?
Cc1c(C)n(Cc2ccccc2)c2ccc(C(=O)NCC(C)c3ccccc3)cc12 (stereo not given) | 33%[activator] | 12%
C=CCN(CC#Cc1cccnc1)Cc1ccc(OC)cc1OC | 5% | 12%
CSc1ccc(/C=C(/C#N)C(=O)C(C)(C)C)cc1 | 17% | 0%
COc1ccc(Nc2c3c(nc4ccc(NC(=O)c5cc(Cl)ccc5OC)cc24)CCCC3)cc1OC | ? | -36%
COc1cccc(NC(=O)C(C)n2c(=O)cc(C(F)(F)F)c3c(C)nn(C)c32)c1 (stereo not given) | -10% | -13%
CCSC1=N/C(=C\c2cccc(OC)c2)C(=O)S1 | 15% | 23%
COCC(C)NCc1cc(=O)oc2cc(C)c(C(C)C)cc12 (stereo not given) | ? | ?
Cn1nc(C(=O)Nc2ccccc2Oc2ccccc2)c2ccccc2c1=O | 1% | 8%
COc1ccccc1C(=O)NCc1nc2cccnc2n1Cc1ccc(F)cc1 | -8% | -10%
CC(CC(C)C(=O)c1ccccc1)C(=O)c1ccccc1 (stereo not given) | 28% | 22%
CCCn1nc(C(=O)OCC(=O)N(C)Cc2ccco2)c2ccccc2c1=O | 25% | 18%
CCOc1cc(/C=C/C(=O)NC(C)(C)C)ccc1OCC(C)C | -5%[1.06 µM] | 1%
CNS(=O)(=O)c1cc(-c2nn(C)c(=O)c3ccccc23)ccc1C | 325%[activator] | 93%[activator]
O=S(=O)(c1ccc(-c2cnc(C3CC3)o2)cc1)N1CCN(c2ccc(F)cc2)CC1 | 4% | -17%
O=C(Cn1c(=O)nc(-c2ccccc2)c2ccccc21)Nc1ccc(Cl)c(C(F)(F)F)c1 | -5% | -2%
CCCCCCCCN1C(=O)[C@@H](CC(=O)N2CCN(C(=O)OCC)CC2)C[C@@]2(C(=O)OC)C1=C[C@H](COCc1ccccc1)O[C@@H]2C | -12% | -19%
Cc1ccc(C)c(NC(=O)COC(=O)c2nn(C)c(=O)c3ccccc23)c1 | -14% | -15%

Carrying on:
Values in the order – StopGo RLuc | StopGo FLuc
> COC(=O)c1ccc(C(=O)OCc2nc(N)c3ccccc3n2)cc1
→ 1% | 38%[activator]
> Cc1ccc(C(=O)c2sc(Nc3cccc(Br)c3)nc2N)cc1
→ -9% | 38%[activator]
> Cc1ccc2c(CSc3nncs3)cc(=O)oc2c1C
→ 12% | 88%[activator]
> Nc1ccc(C(=O)O)cn1
→ 6% | 23%
> CN(C)CCCNC(=O)c1cc(-c2ccccc2)nc2ccccc12
→ -14% | -11%
> CCOC(=O)c1c(C)oc2nc(C)nc(NCCc3ccc(Cl)cc3)c12
→ -10% | -12%
> OCc1cccc(Nc2ncnc3sccc23)c1
→ 9% | 0%
> COc1cc(C2C(=O)N(C3CCCCC3)CC(=O)N2CCc2ccccc2)ccc1OC(C)C (stereo not given)
→ 7% | -17%
> CCc1ccc(-c2cn3c(n2)sc2cc(C(=O)NCCCc4ccccc4)ccc23)cc1
→ 6% | 25%
> N#CC1(NC(=O)CNc2cccc(-c3nnnn3C3CC3)c2)CCCC1
→ 23% | -1%
> CCOC(=O)c1cc(NCc2cccc3ccccc23)ccc1N1CCOCC1
→ -2% | -1%
> CCSc1ccccc1C(=O)Nc1ccc2c(c1)CCC2
→ 24% | 167%[activator]
> COc1ccc(OCC(=O)N2CCN(C(=O)c3ccc(OC)c(OC)c3)CC2)cc1
→ -4% | 21%
> Cc1ccc(C)c(NC(=O)C2CCN(S(=O)(=O)c3c(C)noc3/C=C/c3cccs3)CC2)c1
→ -5% | -4%
> Cc1nc(C)c(-c2csc(Nc3ccc(F)cc3)n2)s1
→ ? | 5%

A second format for some results above:
SMILES: Cc1ccc2c(CSc3nncs3)cc(=O)oc2c1C
- StopGo RLuc: 12%
- StopGo FLuc: 88%[activator]

SMILES: Nc1ccc(C(=O)O)cn1
- StopGo RLuc: 6%
- StopGo FLuc: 23%

Later entries:
Values in the order – StopGo RLuc | StopGo FLuc
> Cc1ccc(C)c(OCc2ccc(-c3nc(C#N)c(N(C)C)o3)o2)c1
→ -10% | -4%
> Cc1ccc(NC(=O)Cc2coc3ccc(C(C)C)cc23)cc1Cl
→ -19% | ?
> COc1ccc(Cc2nnc(NC(=O)C3CCCO3)s2)cc1OC (stereo not given)
→ 7% | 23%
> CN(C)Cc1ccccc1CNC(=O)CCc1nc2ccccc2s1
→ -2% | 6%
> COc1ccc(C(=O)Nc2cccc(-c3nc4cc(Cl)ccc4o3)c2)c(OC)c1
→ 1% | 18%
> O=C(c1ccc(Cl)cc1Cl)N1CCC(c2nc3ccccc3o2)CC1
→ ? | ?
> COCCNc1oc(-c2ccc(S(=O)(=O)N3CCC(C)CC3)cc2)nc1C#N
→ 154%[activator] | -4%
> CC(C)CCn1c(=O)[nH]c(=O)c2c3c(cnc21)C(=O)CC(c1ccc(F)cc1)C3 (stereo not given)
→ -7% | -4%
> COCCCNc1oc(-c2ccc(S(=O)(=O)N3CCC(C)CC3)cc2)nc1C#N
→ 52%[activator] | -10%
> CC1=C(C(=O)Nc2ccc(C)cc2C)C(CC(C)C)n2nc(SCc3ccccc3C)nc2N1 (stereo not given)
→ -7% | 3%
> CCCCC(=O)Nc1ccc2nc(SCC(=O)N3CCCC3)sc2c1
→ 33%[activator] | 20%
> Cc1ccc(-c2cc(C(=O)Nc3ccc(C#N)cc3)c3ccccc3n2)o1
→ 7% | 29%
> CC(C(=O)N1CCCC1)n1cnc2c1c(=O)n(C)c(=O)n2C (stereo not given)
→ 0% | -2%
> COc1cccc2c1cc1c(=O)n(CC(=O)N3CCCCC3)nc(C)n12
→ -7% | -12%
> CCc1ccc2oc(=O)cc(CN3CCN(CC(=O)N4CCCCC4)CC3)c2c1
→ 0% | -4%
> Cc1ccc2c(CN3CCCCC3)cc(=O)oc2c1
→ 13% | 139%[activator]
> Cc1ccccc1-c1nc2scc(CCNC(=O)C(=O)Nc3cc(F)ccc3F)n2n1
→ -10% | 4%
> CSc1ccc(CCNC(=O)c2cc3cc4cc(C)ccc4nc3s2)cc1
→ -5% | 79%[activator]
> Cc1ccc(-n2nc(C)c3c2NC(=O)CSC3c2ccc(O)cc2)cc1Cl (stereo not given)
→ -20% | 31%[activator]
> CCc1cccc2c1NC(=O)C2(O)CC(=O)c1ccc(Cl)cc1 (stereo not given)
→ 35%[activator] | 67%[activator]
> CCC(=O)N1CCN(CCNc2cc(=O)oc3ccccc23)CC1
→ -12% | -3%
> O=C(O)C1=CC(/C=C/c2ccccc2)n2ncc(C(=O)Nc3ccccc3Cl)c2N1 (stereo not given)
→ -3% | 23%
> N#C/C(=C/c1ccc(C#N)cc1)c1nc2ccccc2[nH]1
→ 107%[activator] | 0%
> CCCCc1nn2c(=O)cc(COC(=O)CNC(=O)c3ccccc3C)nc2s1
→ -16% | -5%
> COc1cc(C2CC(=O)N3CN(c4ccc(C)cc4)CSC3=C2C#N)cc(Br)c1O (stereo not given)
→ -8% | 130%[activator]
> COc1cccc(CN2CCC(C)CC2)c1OC
→ -1% | 1%
> CC(C)(C)n1nc(N)c2cc([N+](=O)[O-])ccc21
→ -11% | 74%[activator]
> CCCC(=O)Nc1c(C)cccc1CC
→ 9% | 14%
> Cc1ccc(Cl)cc1N1CCN(C(=O)Cn2cnc3sc(C)c(S(=O)(=O)N4CCC(C)CC4)c3c2=O)CC1
→ -11% | 0%
> O=C(COc1ncnc2ccccc12)Nc1ccccc1
→ -5% | 0%
> O=C(NCc1ccccc1)c1ccc2c(c1)nc1n2CCCCC1
→ -2%&73% | 159%&162%[activator]
> Cc1ccccc1N1CCN(CC(O)Cn2c3ccccc3n3c(=O)cc(C)c(C#N)c23)CC1 (stereo not given)
→ -7% | -9%
> Cc1ccc(Cl)c(OCc2nnc(SCC(=O)NC3CC3)n2C)c1
→ -2% | 6%
> CC(C)(C)c1ccc(/C=C2/C(=O)c3ccccc3OC2c2ccccc2)cc1 (stereo not given)
→ 5%[1.06 µM] | -11%
> O=C(Cc1ccc(Br)cc1)N1CCN(c2ccc(F)cc2)CC1
→ 12% | 23%
> O=C(O)c1cc(F)ccc1I
→ -7% | -12%
> Cc1ccc(C)c(N2CCN(C(=O)CCNS(=O)(=O)c3ccc4c(c3)CCN4C(=O)C3CC3)CC2)c1
→ -18% | -22%
> CCc1nnc2c3ccccc3nc(Nc3ccc(C(C)=O)cc3)n12
→ -10% | -11%
> CCOC(=O)N1CCC(NC(=O)c2ccc3c(c2)N(Cc2ccc(F)cc2)C(=O)c2ccccc2S3=O)CC1 (stereo not given)
→ 4% | 15%
> C=CCOc1nc2c(c(=O)n(Cc3ccccc3)c(=O)n2C)n1C
→ -11% | -4%
> Cc1c(-c2cccs2)nc2ccccc2c1-c1ccccc1
→ 4% | -5%
> N#C/C(=C\c1ccco1)C(=O)NC1CCCCC1
→ 0% | 186%[activator]
> CCOC(=O)c1oc2ccc(S(=O)(=O)n3nc(-c4cc(OC)cc(OC)c4)cc3N)cc2c1C
→ 18% | -18%
> CCCC12CN(C(=O)c3ccccc3)CC(CCC)(CN(C(=O)c3ccccc3)C1)C2=O
→ -10% | -21%
> Oc1ccccc1-c1nc(/C=C/c2ccc(F)cc2)nn1-c1ccccc1
→ -3% | 49%[activator]

Reformatted as labelled records: two of the compounds above
Cc1ccccc1N1CCN(CC(O)Cn2c3ccccc3n3c(=O)cc(C)c(C#N)c23)CC1 (stereo not given)
  StopGo RLuc = -7%
  StopGo FLuc = -9%

Cc1ccc(Cl)c(OCc2nnc(SCC(=O)NC3CC3)n2C)c1
  StopGo RLuc = -2%
  StopGo FLuc = 6%

(cont.)
Values in the order – StopGo RLuc | StopGo FLuc
> Cc1occc1-c1nnc(SCc2cc3c(cc2Br)OCCO3)n1C
→ 168%[activator] | 45%[activator]
> Cc1ccccc1C(=O)Nc1cccc(-c2nnc(SCC(=O)N3CCc4ccccc43)n2C)c1
→ 13% | 8%
> Cc1ccc(NC(=O)c2cccc(N3CCCS3(=O)=O)c2)cc1
→ ? | 74%[activator]
> O=C(c1cccc(Cl)c1)n1nc(-c2cccnc2)nc1NCc1ccccc1
→ -7% | 23%
> CCc1ccc(NS(=O)(=O)c2cc(-c3ccno3)oc2C)cc1
→ 204%[activator] | 21%
> COc1ccc(NC(=O)CN2C(=O)CCn3nc(-c4cccn4C)cc32)cc1Cl
→ -18% | -23%

Not all compounds are listed; rates above refer to the full screens.
